Mtb betalactam: beta-lactam sensitization of Mtb H37Rv; AID 434955; inhibition, % at 25 µM; M. tuberculosis H37Rv growth with meropenem, percent inhibition; hits of this screen are not shown here; 330,000 tested, 0.27% active;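 active = about 74% or more and at least 40 points above the plate without the antibiotic, then above 30% in a dose series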;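 note: growth measured after seven days incubation then overnight dye step; 0% = bacteria only wells and 100% = bacteria with antibiotic; twin plates without the antibiotic show which effects depend on it; some results filed as inactive read as strong as hits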
YopH PTP inh: YopH (Yersinia) phosphatase inhibition; fluorescence Ex485/Em525; inhibition, %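 (about 10 µM by stock and volumes)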; 140,000 tested, 0.16% active;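 active = inhibition of 50% or more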;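 note: controls were vehicle for no effect and minimum signal wells for full effect; inactives centre near -20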
Mtb growth: M. tuberculosis H37Rv growth inhibitors, H37Rv strain (AID 1626); M. tuberculosis H37Rv growth inhibition; higher % means a stronger effect; inhibition, % at 10 µM; hits with a dose series show IC50 in µM; 220,000 tested, 0.95% active;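 active = confirmed in a dose series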;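 note: bacteria incubated seven days before Alamar blue readout; 0% = bacteria only wells and 100% = bacteria with antibiotic wells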
Arbovirus inh: blocks arbovirus infection. arbovirus infection cell-based antiviral screen. inhibition, % at 10 µM. 200,000 tested, 0.37% active. AID 1251;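 active = inhibition from about 30%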;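 note: bluetongue infection of BSR cells; cell survival read as ATP light after 72 h; 0% = infected wells without compound and 100% = uninfected wells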
RecA splice inh: Mtb RecA intein splicing inhibition | P9WHJ3 | cell-free RecA intein splicing, fluorescence | inhibition, %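 (about 9 µM by stock and volumes)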 | 290,000 tested, 0.75% active | AID 2221; in the data active = inhibition above about 30%;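 note: 0% = vehicle wells and 100% = reference inhibitor control wells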
Target sequence (P9WHJ3 whole entry, looked up, canonical isoform): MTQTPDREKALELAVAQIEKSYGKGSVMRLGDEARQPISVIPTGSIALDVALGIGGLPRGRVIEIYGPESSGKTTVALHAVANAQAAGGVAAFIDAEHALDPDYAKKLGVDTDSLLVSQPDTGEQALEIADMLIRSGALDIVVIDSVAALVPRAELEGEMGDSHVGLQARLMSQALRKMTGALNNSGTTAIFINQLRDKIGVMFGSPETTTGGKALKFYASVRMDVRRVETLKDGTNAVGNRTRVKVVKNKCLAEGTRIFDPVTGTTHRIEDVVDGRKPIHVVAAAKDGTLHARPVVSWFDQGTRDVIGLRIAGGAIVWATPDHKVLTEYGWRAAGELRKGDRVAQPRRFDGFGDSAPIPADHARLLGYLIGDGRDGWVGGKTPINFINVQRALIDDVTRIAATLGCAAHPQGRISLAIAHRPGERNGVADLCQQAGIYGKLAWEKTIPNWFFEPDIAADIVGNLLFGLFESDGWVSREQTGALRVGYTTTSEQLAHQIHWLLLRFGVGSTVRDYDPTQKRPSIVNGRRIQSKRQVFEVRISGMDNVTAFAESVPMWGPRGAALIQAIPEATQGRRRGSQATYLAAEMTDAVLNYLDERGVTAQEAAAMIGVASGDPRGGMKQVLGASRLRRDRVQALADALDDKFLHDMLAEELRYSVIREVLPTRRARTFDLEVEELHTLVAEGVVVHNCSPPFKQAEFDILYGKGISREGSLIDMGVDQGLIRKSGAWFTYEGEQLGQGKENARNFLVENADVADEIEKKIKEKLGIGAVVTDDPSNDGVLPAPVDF
Arbovirus inh repeat: also measured in Arbovirus inh; calls as there; inhibition, %; measured here: 10K subset replicate screen; many hits read low in the repeat;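 first of two repeat runs on a subset; 0% = infected and 100% = uninfected wells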
* hit, by the source's call; . = no result given; & = joins results of further samples.

SMILES | Mtb betalactam | YopH PTP inh | Mtb growth | Arbovirus inh | RecA splice inh | others
CCCCn1c(N)c(N(CC(C)C)C(=O)CN2C(=O)NC3(CC(C)CC(C)(C)C3)C2=O)c(=O)[nH]c1=O (stereo not given) | -9 | . | . | . | -2.9
CCC(C)(C)NC(=O)C(c1ccco1)N(C(=O)CNC(=O)c1cccs1)c1cccnc1 (stereo not given) | 4 | -12 | -10% | -1 | -3.1
O=C(CCCN1C(=O)/C(=C\c2ccccc2)SC1=S)Nc1ccc(O)cc1 | 13 | . | -7% | 5 | 32*
CC1CCCCN1C(=O)CSc1ccc(-c2ccc(F)cc2)nn1 (stereo not given) | -3 | -22 | 2% | 0 | -0.9
CN(C)c1ccc2c3c(cccc13)C(=O)N(c1ccccc1)C2=O | -7 | . | -5% | 0 | -0.8
Cc1c(C)c2cc(Cl)c(OCC(=O)NCCCn3ccnc3)cc2oc1=O | -2 | . | . | . | -3.3
O=S(=O)(NCc1c(Cl)cccc1Oc1ccccc1)c1ccc(F)cc1 | -1 | . | 11% | . | .
Nc1nc(CN2CCN(c3ccccn3)CC2)nc(Nc2ccc(F)cc2)n1 | 68 | -1 | -5% | 5 | .
CCOc1ccc(C(N)=O)cc1OC | -3 | -5 | 76% | -4 | -0.6
c1cncc(-c2nc3ccccn3c2Nc2ccc3c(c2)OCCO3)c1 | 6 | -35 | . | -2 | 0.3 | Arbovirus inh repeat=-3
COc1ccc(N(Cc2ccccc2)C(=O)c2ccccc2[N+](=O)[O-])cc1 | . | -18 | 7% | -1 | 4.4
COC(=O)C1=CN(c2ccc(F)cc2)C=C(C(=O)OC)C1c1ccc([N+](=O)[O-])cc1 | 7 | . | . | . | 3.2
CN1C(=O)c2ccc(C(=O)NCc3ccco3)cc2C1=O | -2 | . | . | . | -0.2
COc1ccc(N2CCN(CCCNS(=O)(=O)c3ccc4c(c3)oc(=O)n4C)CC2)cc1 | 1 | 4 | -9% | 0 | -0.2 | Arbovirus inh repeat=0
CCOCCCNC(=O)C(NC(=O)c1cnccn1)c1ccc(OC)cc1 (stereo not given) | 1 | -52 | -1% | 7 | -1.3 | Arbovirus inh repeat=-1
O=C(/C=C/c1ccccc1)Oc1cccc(C(=S)N2CCOCC2)c1 | 6 | . | 2% | 0 | 1.7
O=C(O)CCCNC(=O)C(c1ccccc1)c1ccccc1 | -4&-1 | -18&-11 | -8%&0% | 4&8 | -1.8&-1.8
O=C(NCc1nnc(SCc2ccc(F)cc2)n1-c1ccc(F)cc1)C12CC3CC(CC(C3)C1)C2 | 70 | -13 | . | 2 | 7.8
CC(=O)Nc1c2c(nn1-c1cccc(Cl)c1)CS(=O)C2 (stereo not given) | 3 | -38 | -2% | 5 | -5.0 | Arbovirus inh repeat=2
COC(=O)c1oc2ccc(Cl)cc2c1-n1cccc1 | 5 | -195 | -6% | -3 | 0.2
COc1ccc(S(=O)(=O)N2CCN(C(=S)Nc3ccc(S(N)(=O)=O)cc3)CC2)cc1 | 2 | . | . | . | -4.8
O=C(NCc1ccco1)C1CC(c2ccc(F)cc2)=NO1 (stereo not given) | -8 | . | 7% | . | 5.5
O=C(NCCN1CCCC1)C(c1ccccc1)c1ccccc1 | 0 | . | . | . | 3.1
COC(=O)CNC(c1ccccc1)c1cc(C)ccc1NC(=O)c1cccc(Cl)c1 (stereo not given) | -10 | -18 | 6% | -3 | 8.7
COc1ccc2ccccc2c1/C=N\NC(=O)c1cccnc1 | -10 | . | . | . | -5.2
N#CCSc1nc2scc(-c3cccs3)c2c(=O)n1CCc1ccccc1 | -4 | -27 | -1% | -4 | -2.4
Cc1ccc(CC2SC(=O)NC2=O)cc1Cl (stereo not given) | 2 | -24 | 0% | -1 | .
CCOc1ccc(-c2nnc3sc(COc4ccc(Cl)cc4)nn23)cc1 | -2 | -11 | 7% | 10 | -1.4
O=C(O)C1C2C=CC(C2)C1C(=O)NCc1cccs1 (stereo not given) | -6 | . | 4% | 1 | -2.1
Cc1ccc(Nc2nnc(SC/C(O)=C(\C#N)c3nc4ccccc4[nH]3)s2)c(C)c1 | -2 | -36 | 15% | 11 | -0.1
O=C(NCCCN1CCCC1=O)C1CCCO1 (stereo not given) | -4 | . | -6% | 2 | 2.3
COc1cc2c(cc1NC(=O)CSc1cccc[n+]1[O-])oc1ccccc12 | 3 | -6 | 14% | 17 | 2.5
O=C(COc1ccc(F)cc1)Nc1nnc(S(=O)(=O)N2CCCC2)s1 | -1 | . | . | . | -1.1
CN(C)S(=O)(=O)N(CC(=O)Nc1ccc(S(=O)(=O)N2CCCC2)cc1)c1ccccc1 | 7 | . | . | . | 2.5
COc1cc(OC)nc(NC(=O)COC(=O)c2cccc(Cl)c2)n1 | 0 | . | 3% | 6 | -4.2
Cc1ccc(CNC(=O)CCn2nc(-c3ccc(Cl)cc3)ccc2=O)cc1 | 1 | -39 | 6% | 0 | 1.8
Cc1cn2c(-c3ccncc3)nnc2s1 | -5 | -21 | . | 5 | -2.5
COC(=O)CCCC1=CC2=CC(=O)C(C)(OC(=O)c3cccs3)C(=O)C2=CN1CCc1c[nH]c2ccccc12 (stereo not given) | -12 | . | 0% | . | -0.9
CCn1cc(C(=O)NCCCOC(C)C)c(=O)c2cc(S(=O)(=O)N3CCC(C)CC3)ccc21 | 5 | . | . | . | -2.0
Cc1cc(C(=O)OCC(=O)Nc2ccccc2[N+](=O)[O-])c2ccccc2n1 | 5 | -24 | -1% | 2 | 0.5
Cc1coc2c1C(=O)C(=O)c1c-2ccc2c(C)cccc12 | 100 | . | 0.34µM* | . | 9.3
O=C(NCc1ccccc1F)C1CCCN(C(=O)Nc2ccccc2)C1 (stereo not given) | -8 | . | . | . | 1.5
CCN(CC)S(=O)(=O)c1ccc(N2CCOCC2)c(NC(=O)c2c3c(nc4ccccc24)CCC3)c1 | 10 | -22 | 7% | -14 | -1.6
CN(c1nc2ccccc2[nH]c1=O)C1CCCCC1 | 0 | . | . | . | 3.4
Cc1cc(C)c(C)c(S(=O)(=O)Nc2ccc(C(N)=O)cc2)c1C | 2 | . | 2% | 6 | -7.6
O=C(CCc1nc(-c2ccccc2F)no1)NC1CCN(Cc2ccccc2)CC1 | -6 | -55 | 2% | 15 | -1.2
CC(C)CN(Cc1c(O)ccc2c(=O)c(-c3ccccc3)coc12)CC(C)C | -2 | . | . | . | 1.2
O=C(CCc1nc2sc3c(c2c(=O)[nH]1)CCCC3)Nc1cccc(Cl)c1 | -4 | . | . | . | 4.1
CCc1ccc(S(=O)(=O)N2CCCC(N3CCN(c4ccc(OC)cc4)CC3)C2)cc1 (stereo not given) | 32 | . | . | . | 0.6
CCOc1ccc(/C=C(/NC(=O)c2ccccc2)C(=O)NCCC(=O)O)cc1 | -6 | . | -4% | 4 | 0.6

Continuation.
SMILES | Mtb betalactam | YopH PTP inh | Mtb growth | Arbovirus inh | RecA splice inh | others
COc1ccc(C(CNC(=O)COc2ccc(C)c(C)c2)N2CCCCC2)cc1 (stereo not given) | -2 | . | . | . | 2.0
COc1[nH]c(/N=C/c2ccccc2)c(C#N)c1C#N | -7 | -19 | -2% | -5 | -7.9
CCOC(=O)c1c(CSc2ccccc2)n(C)c2ccc(O)cc12 | 8 | . | . | . | 6.7
CS(=O)(=O)Nc1ccc(S(=O)(=O)N2CCOCC2)cc1 | -20 | -35 | -11% | 1 | -0.1
C=C1CCN([C@@H](Cc2ccccc2)C(=O)N2CCOCC2)S(=O)(=O)c2ccccc21 | -10 | . | -5% | . | 0.9
COc1ccc(C(CNC(=O)c2ccc3c(c2)OCCO3)N(C)C)cc1 (stereo not given) | 3 | . | . | . | -1.1
CCOc1cccc(NC(=O)C(Cc2cccs2)c2nn[nH]n2)c1 (stereo not given) | -4 | -7 | -7% | 0 | -1.0
Cc1oc2c(c(C)cc3oc(=O)c(CC(=O)NCC(=O)NCC(=O)NCC(C)O)c(C)c32)c1C (stereo not given) | 2 | . | . | . | -7.0
Cc1noc(NS(=O)(=O)c2ccc(NC(=O)c3nn(-c4ccc(F)cc4)ccc3=O)cc2)c1C | 11 | . | . | . | 9.2
COc1cc(/C=C/C(=O)OCC(=O)N2CCCc3ccccc32)ccc1OC(F)F | 3 | . | . | . | 0.4

Four compounds already listed, sorted by number of heavy atoms, highest first:
SMILES | Mtb betalactam | YopH PTP inh | Mtb growth | Arbovirus inh | RecA splice inh | others
Cc1oc2c(c(C)cc3oc(=O)c(CC(=O)NCC(=O)NCC(=O)NCC(C)O)c(C)c32)c1C (stereo not given) | 2 | . | . | . | -7.0
COc1cc(/C=C/C(=O)OCC(=O)N2CCCc3ccccc32)ccc1OC(F)F | 3 | . | . | . | 0.4
CCOC(=O)c1c(CSc2ccccc2)n(C)c2ccc(O)cc12 | 8 | . | . | . | 6.7
COc1[nH]c(/N=C/c2ccccc2)c(C#N)c1C#N | -7 | -19 | -2% | -5 | -7.9

3 neighbouring compounds already listed, for reference:
SMILES | Mtb betalactam | YopH PTP inh | Mtb growth | Arbovirus inh | RecA splice inh | others
Cc1oc2c(c(C)cc3oc(=O)c(CC(=O)NCC(=O)NCC(=O)NCC(C)O)c(C)c32)c1C (stereo not given) | 2 | . | . | . | -7.0
Cc1noc(NS(=O)(=O)c2ccc(NC(=O)c3nn(-c4ccc(F)cc4)ccc3=O)cc2)c1C | 11 | . | . | . | 9.2
COc1cc(/C=C/C(=O)OCC(=O)N2CCCc3ccccc32)ccc1OC(F)F | 3 | . | . | . | 0.4

(next part)
SMILES | Mtb betalactam | YopH PTP inh | Mtb growth | Arbovirus inh | RecA splice inh | others
Cc1cccc(-n2ncc3c2CCCC3NC(=O)CCc2cccnc2)c1C (stereo not given) | -6 | . | . | . | 1.0
Cc1ccc(NC(=O)Cn2ncn3c(cc4ccccc43)c2=O)cc1F | -3 | . | . | . | 0.9
Cc1cc(-c2ccc(S(=O)(=O)N3CCN(c4cccc(C)c4C)CC3)s2)on1 | 3 | . | . | . | -1.8
CCOC(=O)c1[nH]c2ccccc2c1NC(=S)Nc1cccc(C)c1C | -1 | -33 | . | -11 | 0.6
Cc1ccc2cc(COC(=O)c3cccc([N+](=O)[O-])c3)c(=O)[nH]c2c1 | 33 | . | 2% | . | -0.5
CCOC(=O)c1cc(-c2ccccc2)n(CCC(=O)NC(C)CC)c1C (stereo not given) | -4 | -28 | -1% | -15 | 2.4
COc1ccc(-n2c(-c3ccc(Br)cc3)c[n+]3c2SC(C)C3)cc1 (stereo not given) | 3 | . | 8% | 17 | -5.9
COc1ccc(CNC(=O)C/C(C)=N/NC(=O)COc2cccc(C)c2)cc1 | 2 | . | -4% | 3 | 2.0
O=C(NNC(=S)NCC1CCCO1)c1ccc(S(=O)(=O)N2CCOCC2)cc1 (stereo not given) | 2 | . | -1% | -1 | -3.2
CC(Cc1ccccc1Sc1ccc(O)cc1)N(C)C (stereo not given) | -11 | -24 | -7% | -25 | -7.4
O=C(Nc1ccc(F)c(Cl)c1)C1CCN(c2ncnc3c2nc2n3CCCCC2)CC1 | 10 | . | . | . | -2.5
CCOc1cc(/C=N/NC(=O)COc2ccc(Cl)cc2)ccc1OS(=O)(=O)c1ccccc1 | 2 | -10 | 4% | -24 | 3.2
COc1ccc(CNC(=O)C2CCCN(S(=O)(=O)c3c(C)nn(C)c3C)C2)cc1 (stereo not given) | -8 | -31 | -13% | 0 | 1.0
O=C(COc1ccccc1)NC1CCS(=O)(=O)C1 (stereo not given) | 5 | . | -10% | 23 | 0.3
Cc1nc(C)c(-c2ccc(SCC(=O)Nc3ccc(F)cc3F)nn2)s1 | -4 | . | . | . | 1.5
Cc1ccc(-n2[nH]c(C)c(/C=N/NC(=O)c3ccc(O)cc3O)c2=O)cc1 | 5 | . | . | . | 11
O=C(C1CCCN(Cc2ccc(Cl)cc2)C1)N1CCCCC1 (stereo not given) | -7 | . | . | . | -1.4
O=C(Nc1ccccc1)OCCOc1cccc(Br)c1 | 1 | . | . | . | 2.7
COc1ccc(Cl)cc1C(=O)NCCCN1CCOCC1 | -7 | . | . | . | 0.5
Cc1ccc(S(=O)(=O)N2CCN(C(=O)CCN3C(=O)c4ccccc4C3=O)CC2)cc1C | -4 | -24 | -4% | 7 | 0.2
Nc1c(-c2ccccc2)cnc2c(-c3ccccc3)cnn12 | 0 | . | . | . | 3.4
COc1cccc(CN2CCN(Cc3ccc(C#CC(C)(C)O)s3)CC2CCO)c1 (stereo not given) | -6 | . | 6% | -4 | 77*

Bioassay records (PubChem BioAssay)

This is a subset; count on the stated rates, not on these rows.
